HIV Env fusion – blocks HIV Env-driven cell-cell fusion | HeLa-JRFL Env/CEM21 cell fusion, luciferase | inhibition, % at 12.3 µM | actives 1.1% (n = 360,000);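 active = mean replicate inhibition score of at least 50 and every replicate individually at or above 50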;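 note: 0% = plate neutral controls and 100% = maraviroc near 300 nM; one replicate is shown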
MT1-MMP act inh – MT1-MMP (human) activation inhibition | P50281 | HT1080 RFP-PRO-GFP cells, GFP/RFP ratio fluorescence, overnight; percent of plate control window, DMSO zero | GFP/RFP ratio change, % at 20 µM | actives 0.061% (n = 360,000);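 active = GFP/RFP ratio change of at least 30% with cell ATP level not reduced by more than half and red fluorescence within 50% of control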; note: strong numbers were not always called active
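Compound: 20 µM single dose, 1% DMSO / System: HT1080 RFP-PRO-GFP cells / Controls: DMSO and RFP-L50D-GFP cell wells / Read-out basis: GFP/RFP fluorescence ratio / Schedule: overnight compound exposure at 37 °C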
Rce1 inh – blocks yeast Ras-converting enzyme; yeast membranes, quenched prenylated peptide cleavage fluorescence; actives 0.27% (n = 290,000); Q03530; calls only;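 active = fall in fluorescence gain of 50% or more versus controls, with final raw signal at or below 3038400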;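 note: plate controls were neutral control wells for no effect and wells lacking membranes for full effect; tested at 10 µM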
Target sequence (Q03530 whole entry, looked up): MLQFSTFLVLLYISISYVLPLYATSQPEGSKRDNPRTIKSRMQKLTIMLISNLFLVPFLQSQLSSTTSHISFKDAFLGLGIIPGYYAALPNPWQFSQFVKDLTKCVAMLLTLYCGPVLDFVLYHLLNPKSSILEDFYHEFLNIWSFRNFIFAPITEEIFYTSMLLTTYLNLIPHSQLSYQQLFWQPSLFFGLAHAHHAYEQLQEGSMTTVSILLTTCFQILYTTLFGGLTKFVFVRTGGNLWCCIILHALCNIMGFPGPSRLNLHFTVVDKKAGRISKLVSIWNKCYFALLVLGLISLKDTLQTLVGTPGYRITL
CSC inhib – cancer stem cell inhibition | actives 1.1% (n = 300,000) | inhibition, % at 7.5 µM | AID 2717 | cancer stem cell-like cells viability, luminescence;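 active = mean at 75% or more and at least half the replicates too; tested in HMLE shEcad cells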;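 note: 0% = median of negative and 100% = median of positive control wells; the first replicate is given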
eIF4H inh – inhibitors of RNA binding by human eIF4H; AID 2012; actives 0.94% (n = 290,000); eIF4H fluorescence polarization binding assay; inhibition, % at 35 µM;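 active = 50% or more with normal probe brightness, or confirmed in later tests; about a fifth of its hits are not listed in these tables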;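 note: calls also rest on retests at 20 µM and on dose response follow-up; 0% = protein and probe with vehicle and 100% = probe without protein; strong numbers were not always called active; many hits fall short of the cut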
Yeast UUG start – alters start codon recognition fidelity in yeast | AID 602363 | S. cerevisiae UUG-firefly luciferase reporter, luminescence/redox ratio | actives 0.13% (n = 350,000) | activity score, % at 18.7 µM;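 active = replicate mean at a twofold rise or more, about +100% in these data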;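 note: firefly luciferase made from a UUG start codon reports start codon fidelity; reporter light over untreated wells divided by growth signal over untreated wells; some hits fall short of that in this replicate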
PABP FP inh – PABP-poly(A) binding inhibition. P11940. PABP-poly(A) RNA binding, fluorescence polarization. inhibition, % at 35 µM. actives 1% (n = 290,000). AID 2014;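 active = 50% or more with normal probe brightness, or confirmed in later tests; about a fifth of its hits are not listed in these tables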;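 note: calls also rest on retests at 20 µM and on dose response follow-up; controls were probe without protein and protein plus probe with vehicle; some compounds called inactive have numbers as strong as hits; many hits fall short of the cut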
eIF4H inh retest – second read-out of eIF4H inh, no call of its own (marks repeat the call); inhibition, %; compound at 20 µM; confirmation average;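 mean of two retest wells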
PABP FP inh retest – also measured in PABP FP inh; calls as there; inhibition, %; compound at 20 µM; confirmation repeats;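 mean of two retest wells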
MT1-MMP act inh RFP – further read-out of MT1-MMP act inh, marked with its call; RFP signal change, %; measured here: RFP expression control read;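 0 = vehicle wells; hits needed this value within 50% of zero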
* marks the source's active call; other numbers are inactive results; i = inactive; x = no result given.

SMILES	HIV Env fusion	MT1-MMP act inh	MT1-MMP act inh RFP	Rce1 inh	CSC inhib	eIF4H inh	Yeast UUG start	PABP FP inh	others
Cc1c(C(=O)NCc2cccs2)sc(=O)n1Cc1ccc(S(C)(=O)=O)cc1	17	4	-6	x	x	x	-19	x
[N-]=[N+]=CC(=O)C(c1ccccc1)(c1ccccc1)c1ccccc1	-9	2	2	i	-4	0	4	0
CS(=O)(=O)CCC(C(=O)OCC(=O)c1ccc(Cl)cc1)N1C(=O)c2ccccc2C1=O (stereo not given)	x	0	7	i	x	-3	-12	1
O=C(OCCCN=C1NS(=O)(=O)c2ccccc21)c1ccc([N+](=O)[O-])cc1	3	-3	1	i	-18	-2	x	2
CC(C)Cn1c(SCc2nc3ccccc3c(=O)[nH]2)nc2ccccc2c1=O	5	-4	-6	i	2	-8	x	-7
Cc1n[nH]c(=S)n(NC(=O)CC(=O)Nn2c(=S)[nH]nc(C)c2=O)c1=O	5	0	8	i	-3	22	x	5
COc1ccc2nc(SCC(=O)N(C)C3CCCCC3)[nH]c2c1	-4	1	-1	x	x	x	-26	x
Cc1ccc(-n2c(O)c(C=Nc3cc(C)on3)c3ccccc3c2=O)c(C)c1	40	-9	-7	i	24	6	x	-8
COc1cc2ccccc2cc1C(=O)NC1CCCC1	x	2	3	x	-8	x	9	x
CCCOc1ccc(/C=c2\sc3nc(-c4ccco4)nn3c2=O)cc1OCC	x	-3	1	i	-3	52	9	4	eIF4H inh retest=4;PABP FP inh retest=7
O=C(NC1CCCC1)c1cc(-c2ccccc2O)on1	-15	1	-1	i	1	7	-8	14
COc1cccc(/C=N/NC(=O)NC23CC4CC(CC(C4)C2)C3)c1O	x	5	-2	i	29	x	-10	x

Ordered by SMILES length (highest first): 6 of the compounds above.
SMILES	HIV Env fusion	MT1-MMP act inh	MT1-MMP act inh RFP	Rce1 inh	CSC inhib	eIF4H inh	Yeast UUG start	PABP FP inh	others
O=C(OCCCN=C1NS(=O)(=O)c2ccccc21)c1ccc([N+](=O)[O-])cc1	3	-3	1	i	-18	-2	x	2
Cc1ccc(-n2c(O)c(C=Nc3cc(C)on3)c3ccccc3c2=O)c(C)c1	40	-9	-7	i	24	6	x	-8
CC(C)Cn1c(SCc2nc3ccccc3c(=O)[nH]2)nc2ccccc2c1=O	5	-4	-6	i	2	-8	x	-7
[N-]=[N+]=CC(=O)C(c1ccccc1)(c1ccccc1)c1ccccc1	-9	2	2	i	-4	0	4	0
O=C(NC1CCCC1)c1cc(-c2ccccc2O)on1	-15	1	-1	i	1	7	-8	14
COc1cc2ccccc2cc1C(=O)NC1CCCC1	x	2	3	x	-8	x	9	x

Remaining list, next part.
SMILES	HIV Env fusion	MT1-MMP act inh	MT1-MMP act inh RFP	Rce1 inh	CSC inhib	eIF4H inh	Yeast UUG start	PABP FP inh	others
CCc1nnc2n1N=C(c1ccc(OC)cc1)CS2	-479	5	0	i	26	-2	-20	5
CCCC(=O)n1nc(-c2ccc(OC)cc2)nc1N	x	7	17	i	12	3	-8	-4
CCn1c(SCC(N)=O)nnc1-c1cc2c(C)nn(-c3ccccc3)c2s1	3	3	-3	i	-11	-8	0	10
Cc1ccccc1OCC(=O)Nc1ccc(C(=O)Nc2ccccc2C(=O)O)cc1	-23	2	7	i	16	0	-9	11
CC(=O)c1ccc(S(=O)(=O)NCC(=O)Nc2nc3ccccc3[nH]2)cc1	x	-4	2	x	-5	x	-18	x
N#C/C(=C\c1ccc(O)cc1)C(=O)NCc1ccccc1	-12	5	0	i	7	-2	-10	0
Cc1ccn(-c2cccc(-n3ccc(C)n3)n2)n1	-135	3	0	i	-13	-1	x	11
CC1=C(C(=O)N(C)C)CC(CC(=O)NCc2cccc3ccccc23)C(=O)N1Cc1ccc(C(C)(C)C)cc1 (stereo not given)	7	2	-5	x	x	x	-1	x
O=C(COC(=O)c1cc(=O)[nH]c2ccccc12)NCc1ccccc1	i	3	3	x	4	x	-7	x
O=C(CSc1nnc2n1CCCCC2)Nc1ccc(N2CCOCC2)cc1	-14	-5	2	i	8	0	-6	0
Cc1ccc(NC(=O)/C=C/c2ccco2)cc1S(=O)(=O)N1CCCCCC1	10	4	-29	i	7	x	-15	x
NS(=O)(=O)c1cccc(NC(=O)COC(=O)c2cc([N+](=O)[O-])ccc2N2CCCC2)c1	11	-2	-20	x	8	x	-5	x
CCOC(=O)C1=C(C)NC(C)=C(C(=O)OCC)C1C(=O)OCC(=O)NC1CCCCC1	8	-1	-2	x	-1	x	1	x
CCCOc1ccc(C2=CSC3=NCCN23)cc1	2	-1	-2	i	40	-15	-24	-5
C=CCn1c(O)c(C=Nc2ccc(Cc3ccncc3)cc2)c(=O)[nH]c1=S	10	2	4	i	11	92	-17	93	eIF4H inh retest=-6;PABP FP inh retest=-11
O=C1SCCc2c1n(Cc1ccccc1)c1ccccc21	x	7	6	x	20	-6	-9	-9
Cc1nnsc1C(=O)N/N=C/c1ccccc1Cl	-12	-2	0	i	-14	-10	x	-13
Cc1cc(C)c(NC(=O)CSc2nc(=O)n3cc(C)ccc3n2)c(C)c1	13	1	1	i	-11	x	x	x
COc1ccc(NC(=O)CN2C(=O)c3ccccc3Sc3ccc(C(=O)N4CCOCC4)cc32)c(OC)c1	-12	-2	2	i	-8	16	-9	-9
O=C(CSc1nnc(-c2cccnc2)o1)Nc1ccc(Br)cc1	15	1	5	i	-2	4	-17	-6
COc1ccc(C(=O)NC2CC2)cc1OC1CCN(Cc2ccc(Cl)cc2)CC1	x	5	4	x	-11	-4	-8	-2
CCCC(=O)OCC(=O)Nc1cc(Cl)ccc1[N+](=O)[O-]	-2	6	5	i	-11	1	x	10
CC(Sc1ncnc2sccc12)C(=O)Nc1ccc(S(N)(=O)=O)cc1 (stereo not given)	-28	-3	-7	x	-8	x	x	x
NC(=O)C1CCN(c2ncc(C(F)(F)F)cc2Cl)CC1	-9	2	2	i	-13	2	x	-8
CC(C)n1cc(CNC(=O)C2CCC(=O)N(Cc3ccccc3F)C2)cn1 (stereo not given)	2	3	7	i	6	-11	-6	6
O=C(c1cccs1)N1CCc2c([nH]c3ccccc23)C1c1ccccn1 (stereo not given)	-3	-6	-4	i	3	0	x	6
CN(C)C(=O)c1cc(Br)ccc1Cl	-11	-3	3	i	1	11	-24	-5
COc1ccc(CN(CC(=O)NCc2ccccc2)C(=O)CCC(=O)Nc2cc(C)ccn2)cc1	7	-2	-1	i	2	11	-1	4
Cc1nc2ccccc2n1C(=O)N1CCOCC1	x	1	3	i	-3	0	-7	-19
CN1CCN(C(=O)c2ccc3c(c2)N(C)C(=O)/C(=C/c2cccc(Cl)c2)S3)CC1	0	4	-4	i	-15	-2	-12	4
c1cc2c(cc1Oc1nc(N3CCOCC3)nc(N3CCOCC3)n1)OCO2	x	-6	-5	i	-8	5	12	-4
COc1cc(NC(=O)CN2CCN(C(=O)C3CCCO3)CC2)c(OC)cc1Cl (stereo not given)	-3	1	-1	i	-7	-14	-16	1
CC(=O)N(C)c1ccc(NCc2cc(=O)oc3cc(C)c(O)cc23)cc1	-16	-1	2	i	-10	2	-12	1
Cc1ccc(CNC(=O)COC(=O)c2ccc(Cl)c(N)c2)cc1	13	4	0	i	-3	5	-4	3
COC(=O)c1sc(C(C)(C)C)cc1CS(=O)(=O)c1ccccn1	14	4	-4	i	-7	0	x	0
Cc1ccnc(SCc2cc(=O)c(OC(=O)c3ccccc3)co2)n1	-4	-1	2	i	-6	-2	x	2
COc1cccc(C2CC(C(F)(F)F)n3nc(C(=O)Nc4c(C)n(C)n(-c5ccccc5)c4=O)cc3N2)c1 (stereo not given)	9	0	2	i	-8	-6	9	2
C[C@]1(C(=O)O)C=C[C@@H](Cc2ccccc2)N1C(=O)c1ccccc1	-3	0	7	i	-9	-11	-5	-3
CC(=NC1CCCCC1)C1=C(O)c2ccccc2C1=O	-198	2	1	i	-5	2	-10	2
Cc1onc(-c2ccccc2)c1C(=O)Nc1c(C)n(C)n(-c2ccccc2)c1=O	x	4	2	i	0	-6	9	-2
COc1ccc(S(=O)(=O)NC(C)C(=O)NCc2cccnc2)cc1C (stereo not given)	3	-1	0	i	-8	x	-15	x
CC(=O)Nc1cc(-c2ccc(N)cc2)cn2c(-c3cccc(C(F)(F)F)c3)cnc12	-21	-68	6	x	x	x	-15	x
CC(C)N(C(=O)c1nn(C)c2c1CSc1ccccc1-2)C1CCCCC1	7	2	-3	i	30	-7	3	3
O=C(Nc1ccccc1)c1ccc(-c2ccccc2C(F)(F)F)o1	-12	3	-4	x	9	-4	-8	6
CCOC(=O)COc1cc(O)c2c(=O)cc(-c3ccccc3)oc2c1	20	4	-2	i	-18	6	x	-17
NC(=O)c1ccc[n+](CC(=O)c2ccc(Br)cc2)c1	1	1	-2	i	x	1	x	-2
CN1C(=O)CC2(CC(=O)N(Cc3ccccc3)C2)C1=O (stereo not given)	x	4	1	i	-16	3	1	5
CCN(CC(=O)Nc1ccc(NC(C)=O)cc1)C(=O)/C=C/c1c(C)nn(-c2ccc(F)cc2)c1Cl	-7	-2	-1	x	x	x	-9	x
Nc1ccn([C@@H]2O[C@H](CNCc3cc(Cl)ccc3OCc3ccc(Cl)cc3)[C@@H](O)[C@H]2O)c(=O)n1	6	1	2	x	x	x	-28	x
CC(C)(C)N1CC(C(=O)Nc2ccc(C#N)cc2)CC1=O (stereo not given)	27	-1	1	i	-7	1	-19	0
Cc1ccc(C(=O)N2CCN(S(=O)(=O)c3ccccc3)CC2)cc1	10	-1	-4	i	0	-4	x	-8
Cc1ccc(NC(=O)N2CCC(NC(=O)c3ccccc3C)CC2)cc1	-56	0	2	i	-3	-10	10	-12
Cc1cccc(N2CCN(C(=O)c3cc(S(=O)(=O)N(C)C)ccc3N3CCCC3)CC2)c1C	8	-2	-2	i	9	-8	10	5
Cc1cccc(NC(=O)c2ccc(COc3ccc(Cl)cc3Cl)o2)n1	41	4	0	i	104*	0	-18	6
CCn1ncc(Br)c1C(=O)Nc1ccccc1OC	29	0	0	i	-5	3	x	4
CC(O)Cn1c(N2CCCC2)nc2c1c(=O)[nH]c(=O)n2C (stereo not given)	-15	4	0	i	-14	-3	-17	3
OC(c1cc(-c2cccc(Cl)c2)nc2ccccc12)C1CCCCN1 (stereo not given)	-22	-7	-6	x	x	x	-16	x
Cc1nnc(N2CCN(Cc3ccccc3)CC2)[nH]c1=O	x	5	9	i	-3	-1	-10	1
CC(OC(=O)CCOc1ccccc1)C(=O)NC1CC1 (stereo not given)	-15	1	-1	i	x	x	-4	x
CN(CC(=O)Nc1ccc(N2CCOCC2)cc1)CC(=O)Nc1ccccc1[N+](=O)[O-]	11	-5	0	i	-1	-2	-1	3

Later entries
SMILES	HIV Env fusion	MT1-MMP act inh	MT1-MMP act inh RFP	Rce1 inh	CSC inhib	eIF4H inh	Yeast UUG start	PABP FP inh	others
COc1cc(C2=Nc3ccc(Br)cc3C(c3ccccc3)N2CC(=O)NN)cc(OC)c1OC (stereo not given)	2	-1	-3	i	1	-2	3	1
Cc1ccc(S(=O)(=O)NC(=O)C2(C)CCN2C(=O)C2CCCCC2)cc1 (stereo not given)	-7	2	9	x	x	x	-12	x
CCNc1ccc(S(=O)(=O)N(C)C)cc1NCC(=O)Nc1c(F)cccc1F	11	1	1	i	8	-5	2	5
FC(F)(F)c1ccccc1Cc1c(C2CCCCC2)nc2ccc(Br)cn12	-31	-6	-1	x	x	x	-5	x
Cc1nnc(NC(=O)c2cc3ccccc3o2)s1	-17	0	1	i	-4	3	-13	12
COc1cc(C(=S)NCc2ccccc2)cc(Br)c1O	3	4	3	i	10	-9	x	6
c1ccc2c(c1)ncc1cccn12	x	-5	0	i	-3	-4	x	2
CSCCC(NC(=O)COc1ccccc1)C(=O)N1CCCC(C(F)(F)F)C1 (stereo not given)	0	-4	-3	i	-10	x	x	x

Assay outcomes deposited in PubChem BioAssay by several laboratories.
